Rango release inh – qHTS Assay for Inhibitors of RanGTP induced Rango (Ran-regulated importin-beta cargo) - Importin beta complex dissociation | 340,000 tested, 0.071% active | AID 540253, 2011 | Biochemical FRET Rango-importin beta, RanGTP-induced dissociation | Potency, µM (highest dose often 46.1 µM), inactives show at the top dose activity change, negative = inhibition; active means falling FRET ratio curve, often poorly fitted, with flat reads before Ran was added; inconclusive means other falling curves, or compound fluorescence or quenching; inactive means flat or rising ratio curve;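 also: potency is read from the fitted curve at half-maximal effect; % of control where 0% means no effect; nearly all actives have a fitted effect of over 45% in size; -100% = wells without RanGTP and RCC1; the record marks most hits as doubtful in a second field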
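Rango/importin beta premix (0.1/0.25 uM final), PBS + 1 mM DTT + 0.02% Tween-20 + 0.1% BSA; cpd 5 min RT; FRET pre-read; + RanGTP-RCC1 (0.6 uM Ran, 2 mM GTP, 0.2 uM RCC1); 45 min RT; FRET post-read, ex 430, em 486/530 nm.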
miR-21 reporter – qHTS Assay for Modulators of miRNAs and/orActivators of miR-21; Potency, µM (doses to about 38.3 µM), inactives show at the highest dose reporter change, positive = more light; AID 2288, 2010; HeLa miR-21 FLuc reporter, luciferase, 48 h; 340,000 tested, under 10 active; active = well fitted rising curve with a large enough effect; inconclusive = small, poorly fitted or top-dose-only effect; inactive = no such curve, though single readings can be large or run the other way;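 also: % of control where 0% means no effect; miR-21 action dims this reporter so a rising signal means less miR-21 action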
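Using DMEM plus 10% FBS, HeLa miR-21-FLuc cells are incubated with test compounds (final up to about 40uM) for 48 hours; firefly luciferase signal is then imaged following reagent-mediated lysis.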
Rango complex inh – qHTS Assay for Inhibitors of Rango (Ran-regulated importin-beta cargo) - Importin beta complex formation; 340,000 tested, 0.031% active; AID 540263, 2011; Importin subunit beta-1 (Homo sapiens), Q14974; Rango CFP/YFP FRET sensor + importin beta, 45 min; Potency, µM (titrated, usually from 92.2 µM), inactives show top-dose inhibition of complex formation; active = rising FRET ratio curve, often small or poorly fitted; inconclusive = mostly compound fluorescence or quenching in the first reads; inactive = flat curves in all reads;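 also: potency is read from the fitted curve at half-maximal effect; 0% = DMSO wells and 100% = buffer wells lacking importin beta; nearly all actives have a fitted effect of over 15% in size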
Target sequence (Q14974 whole entry, looked up): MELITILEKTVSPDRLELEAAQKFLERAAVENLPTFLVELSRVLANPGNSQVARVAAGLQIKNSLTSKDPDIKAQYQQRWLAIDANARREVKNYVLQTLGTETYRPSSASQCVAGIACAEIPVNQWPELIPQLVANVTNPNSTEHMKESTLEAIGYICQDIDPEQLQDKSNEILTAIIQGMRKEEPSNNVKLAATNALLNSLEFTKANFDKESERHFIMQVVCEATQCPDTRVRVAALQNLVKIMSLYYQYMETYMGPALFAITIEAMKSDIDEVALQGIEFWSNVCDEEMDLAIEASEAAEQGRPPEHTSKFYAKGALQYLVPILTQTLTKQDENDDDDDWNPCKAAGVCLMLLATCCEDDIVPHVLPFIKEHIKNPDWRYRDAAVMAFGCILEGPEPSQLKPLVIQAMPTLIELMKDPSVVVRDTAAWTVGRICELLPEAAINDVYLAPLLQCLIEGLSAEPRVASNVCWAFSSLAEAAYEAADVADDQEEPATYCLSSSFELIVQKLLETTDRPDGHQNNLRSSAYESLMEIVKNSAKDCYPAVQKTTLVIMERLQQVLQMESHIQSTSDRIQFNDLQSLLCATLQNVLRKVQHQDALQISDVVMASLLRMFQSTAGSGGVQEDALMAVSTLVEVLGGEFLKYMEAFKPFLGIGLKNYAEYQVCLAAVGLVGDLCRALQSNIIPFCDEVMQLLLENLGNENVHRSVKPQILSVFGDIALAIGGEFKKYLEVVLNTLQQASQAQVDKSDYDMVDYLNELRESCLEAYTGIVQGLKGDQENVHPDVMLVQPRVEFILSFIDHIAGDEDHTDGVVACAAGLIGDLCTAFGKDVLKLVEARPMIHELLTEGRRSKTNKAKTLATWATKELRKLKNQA
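Inhibition scored from the CFP 486 nm/YFP 530 nm FRET ratio 45 min after adding 0.125 microM importin beta to 50 nM Rango biosensor preincubated 5 min with compound (room temperature, PBS with DTT, Tween-20, BSA). No-importin wells as positive control.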
GLA inh pH 4.5 – qHTS Assay for Inhibitors of Human alpha-Galactosidase at pH 4.5; Alpha-galactosidase A (Homo sapiens), P06280; purified enzyme, 4-MU-alpha-Gal fluorescence, pH 4.5; activity change, negative = inhibition, % at 105 µM; 230,000 tested, under 10 active; inconclusive = small, poorly fitted or top-dose-only inhibition, or a rising curve; inactive = flat fitted curve, though single readings scatter; no compound was filed as active;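 also: 0% = full activity with enzyme and -100% = basal without enzyme; dose as in the result columns while the protocol names 77 µM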
* hit, by the source's call; ? = inconclusive; / = not tested or not shown; & = joins results of further samples; [ ] = dose if it differs, or a comment. Some of the compounds tested; count on the stated rates, not on these rows.

Screens by letter – A = Rango release inh; B = miR-21 reporter; C = Rango complex inh; D = GLA inh pH 4.5
#1 COc1ccc(NC(=O)c2ccc(Cl)c(NC(=O)c3ccncc3)c2)cc1
  A: / | B: -21% | C: / | D: 2
#2 CNC(=O)c1nnsc1S(=O)c1ccc(Cl)cc1 (centres undefined)
  A: 6% | B: ? | C: -13% | D: -4
#3 Cn1c(SCC(=O)N2CCCC2)nc2ccccc21
  A: 2% | B: -7% | C: 0.2% | D: -9
#4 COc1ccc(C(OC(=O)c2ccco2)C(=O)NC2CCCCC2)cc1 (centres undefined)
  A: ? | B: -7% | C: ? | D: 8
#5 COc1ccc(Cn2ccnc2SCC(=O)Nc2cccc(NC(C)=O)c2)cc1
  A: 8% | B: 10% | C: -2.2% | D: -2
#6 CCCCN(Cc1ccccc1)S(=O)(=O)c1ccc2[nH]c(=O)oc2c1
  A: 0% | B: -1% | C: -0.5% | D: -1
#7 CC(=O)c1cc2c(cc1N/C(=N/S(=O)(=O)c1ccc(Br)cc1)c1ccccc1)OCO2
  A: -9% | B: -1%&1% | C: 5.6% | D: 2[21.1 µM]
#8 CC(C)(C)NC(=O)CSc1nc2ccccc2n1-c1ccccc1
  A: -19% | B: 10% | C: 0.5% | D: -7
#9 COCCN=C(NS(=O)(=O)c1cccs1)c1ccccc1Cl
  A: 12% | B: / | C: 3.1% | D: /
#10 Nc1ccc(S(=O)(=O)NNC(=O)C(=O)NNc2ccccc2)cc1
  A: 26% | B: 9% | C: 6.9% | D: -8
#11 O=C(COC(=O)CSc1nnc(-c2ccc(Cl)cc2)o1)Nc1cc(Cl)cc(Cl)c1
  A: 13% | B: -3% | C: 1.9% | D: -2
#12 Cc1ccc(SCC2=NN(c3nc(C)cc(C)n3)C(=O)C2)cc1
  A: -14% | B: -4% | C: 4.2% | D: 5
#13 O=C(c1cc(Cl)nc2ccccc12)N1CCN(Cc2ccc3c(c2)OCO3)CC1
  A: 5% | B: / | C: -0.9% | D: /
#14 Cc1cccc(-c2cc(C(=O)NCc3ccccn3)c3ccccc3n2)c1
  A: 5% | B: -2% | C: -3.9% | D: -5
#15 COc1cccc(/C=N/Nc2nc3ccccc3[nH]2)c1OC
  A: -5% | B: -65% | C: 4.1% | D: -13
#16 O=[N+]([O-])c1cc(-c2ccc(/C=N/c3nc4ccccn4c3-c3ccco3)o2)ccc1Cl
  A: ? | B: -2% | C: ? | D: 8
#17 O=C(CCN(NC(=O)c1ccccc1)C1=NS(=O)(=O)c2ccccc21)NC1CCCCC1
  A: 3% | B: -9% | C: -2.1% | D: 2
#18 COc1ccc(C(NC(C)=O)c2nccc3cc(OC)c(OC)cc23)cc1OC (centres undefined)
  A: 3% | B: -21% | C: 6.4% | D: /
#19 O=C(O)CN1C(=O)CNC1=O
  A: 6% | B: -8% | C: -0.9% | D: 1
#20 COC(=O)[C@@]1(Cc2ccc(OC)cc2)[C@H]2c3cc(C(=O)N(C)C)n(C[C@H](O)CO)c3C[C@H]2CN1C(=O)c1ccccc1
  A: 1% | B: -5% | C: 1.7% | D: 4&-22
#21 CCC(C(=O)NCc1ccco1)n1nc(C)c2c(C)n(-c3ccccc3)nc2c1=O (centres undefined)
  A: -4% | B: -3% | C: 0.0% | D: /
#22 O=C1C(=O)N(CCS(=O)(=O)c2ccccc2)c2ccccc21
  A: 0% | B: -2% | C: -0.5% | D: /
#23 CC1CC(C)CN(S(=O)(=O)c2ccc(C(=O)N3CCCC3)cc2)C1 (centres undefined)
  A: -1% | B: 2% | C: 1.6% | D: /
#24 CCOC(=O)C1C(=O)CC(C)(O)C(C(=O)OCC)C1c1ccc(Br)cc1 (centres undefined)
  A: -16% | B: 1% | C: 0.3% | D: 13
#25 COc1ccc(CN2CCN(c3ncccn3)CC2)c(OC)c1
  A: 11% | B: 1% | C: -3.2% | D: -8

Individual results from above:
Rango complex inh with no. 13 is entered as -0.9%
Rango release inh with no. 5 is entered as 8%
Rango release inh with no. 12 is entered as -14%
Rango release inh with no. 14 is entered as 5%
miR-21 reporter with no. 16 is entered as -2%
miR-21 reporter with no. 19 is entered as -8%
Rango complex inh with no. 25 is entered as -3.2%

Rewritten with each value named: entries from further up.
15: COc1cccc(/C=N/Nc2nc3ccccc3[nH]2)c1OC
  Rango release inh = -5%
  miR-21 reporter = -65%
  Rango complex inh = 4.1%
  GLA inh pH 4.5 = -13
5: COc1ccc(Cn2ccnc2SCC(=O)Nc2cccc(NC(C)=O)c2)cc1
  Rango release inh = 8%
  miR-21 reporter = 10%
  Rango complex inh = -2.2%
  GLA inh pH 4.5 = -2
23: CC1CC(C)CN(S(=O)(=O)c2ccc(C(=O)N3CCCC3)cc2)C1 (centres undefined)
  Rango release inh = -1%
  miR-21 reporter = 2%
  Rango complex inh = 1.6%
  GLA inh pH 4.5 = /
4: COc1ccc(C(OC(=O)c2ccco2)C(=O)NC2CCCCC2)cc1 (centres undefined)
  Rango release inh = ?
  miR-21 reporter = -7%
  Rango complex inh = ?
  GLA inh pH 4.5 = 8

Following part:
Screens by letter – A = Rango release inh; B = miR-21 reporter; C = Rango complex inh; D = GLA inh pH 4.5
#26 O=c1[nH]cccc1-c1nc2cc(Cl)ccc2n1Cc1ccccc1
  A: -9% | B: -2% | C: 3.6% | D: /
#27 Cc1ccc(OCc2cc(C(=O)NCc3cc(F)ccc3C)no2)cn1
  A: -14% | B: -3% | C: -1.6% | D: /
#28 COc1ccccc1NC(=S)NC(=O)c1c(-c2ccccc2Cl)noc1C
  A: 0% | B: -9% | C: -0.5% | D: 5
#29 Cc1ccc(-c2cn3c(=S)[nH]nc3s2)cc1
  A: -2% | B: -7% | C: -1.1% | D: 3
#30 COc1cc(C(=O)OC2CCOC2=O)cc(Cl)c1OC (centres undefined)
  A: -7% | B: 0% | C: 0.4% | D: /
#31 Cc1c(N(C)S(=O)(=O)c2ccc(Cl)c(C(=O)NCC3CCCO3)c2)c(=O)n(-c2ccccc2)n1C (centres undefined)
  A: 4% | B: / | C: 8.0% | D: /
#32 CCc1ccc([C@@H]2CC=C(C(=O)O)[C@H](c3cccc(Cl)c3)N2S(=O)(=O)c2ccc(C)cc2)cc1
  A: 18% | B: / | C: -1.4% | D: /
#33 CCOc1ccc(C(C(=O)NC2CCCC2)N(C(=O)CNC(=O)c2ccco2)c2cccnc2)cc1 (centres undefined)
  A: 0% | B: 1% | C: -0.7% | D: /
#34 c1ccc(OCc2nnc3sc(C4COc5ccccc5O4)nn23)cc1 (centres undefined)
  A: -17% | B: -12% | C: -0.2% | D: -2
#35 O=C(CSc1nnnn1-c1ccccc1F)Nc1nc2ccccc2s1
  A: -15% | B: 0% | C: -0.1% | D: 4
#36 CN(C)n1cccc1/C=C(\C#N)S(=O)(=O)c1cccc(Cl)c1
  A: 27% | B: -2% | C: 0.0% | D: 1
#37 COC(=O)c1ccc(/C=C/c2c(-c3ccc(OC)cc3)oc3ccc(N4CCOCC4)cc23)cc1
  A: 4% | B: -13% | C: -1.5% | D: /
#38 Cc1cc(C)c2oc(C(=O)N3CCN(Cc4ccccc4)CC3)cc(=O)c2c1
  A: -6% | B: -9% | C: -1.4% | D: /
#39 COc1ccccc1C(=O)NCC(=O)NCCc1ccc(Cl)cc1
  A: -17% | B: -9% | C: 2.1% | D: /
#40 Cc1ccc(OCC(=O)NNC(=S)NC(=O)C(C)(C)C)c(Br)c1
  A: 1% | B: -12% | C: -3.7% | D: 1
#41 c1ccc(-c2csc(Cc3nnc4n3CCCCC4)n2)cc1
  A: -8% | B: -16% | C: -3.0% | D: -3
#42 CC(=O)N(C)c1cccc([N+](=O)[O-])c1
  A: -8% | B: 3% | C: 3.4% | D: -1
#43 CSc1ccc(-c2nc3cnccn3c2Nc2ccc3c(c2)OCO3)cc1
  A: -27% | B: 1% | C: ? | D: -26
#44 C#CCOCCOCCOCCNc1nc(N2CCN(C(=O)[C@H]([C@@H](C)CC)n3cc(CCCN=C(N)N)nn3)CC2)nc(N2CCN(C(=O)[C@H](C)n3cc(CCCN=C(N)N)nn3)CC2)n1
  A: -3% | B: -2% | C: 5.8% | D: -18
#45 Cc1ccc(S(=O)(=O)Nc2cc(=O)[nH]c(SCC(=O)Nc3cccc(C)c3)n2)cc1
  A: 0% | B: -1% | C: -3.4% | D: -2
#46 COCCOC(=O)c1c(NC(=O)COC(=O)c2ccc(C)o2)sc(C(N)=O)c1C
  A: ? | B: / | C: 0.1% | D: /
#47 COc1ccc(OC)c(S(=O)(=O)N2CCN(c3ccccc3)CC2)c1
  A: -8% | B: -2% | C: ? | D: /
#48 CCN(c1ccccc1)S(=O)(=O)c1nnc(NC(=O)C(C)(C)C)s1
  A: 0% | B: 2%&-38% | C: 1.1% | D: /
#49 COC(=O)c1ccc(NC(=O)c2cccnc2)cc1
  A: 1% | B: -14% | C: -1.1% | D: /
#50 Cc1[nH][nH]c(=O)c1C(c1cc2c(cc1Br)OCO2)c1c(C)[nH][nH]c1=O
  A: 11% | B: 5% | C: 6.7% | D: -4
#51 COc1cccc(-c2nc(CS(=O)(=O)CC(=O)Nc3ccc(C(C)=O)cc3)c(C)o2)c1
  A: 7% | B: 9% | C: 3.8% | D: /
#52 O=C(CCN1CCN(c2ccccc2F)CC1)Nc1ccc2c(c1)OCO2
  A: 0% | B: -3% | C: 2.1% | D: -5
#53 O=C1C(=O)N(CCCn2ccnc2)C(c2cccc(Br)c2)/C1=C(\O)c1ccc2c(c1)OCCO2 (centres undefined)
  A: 0% | B: 0% | C: -0.1% | D: /
#54 CCCCNC(=O)c1cc2ccccc2s1
  A: -2% | B: -37% | C: -0.8% | D: 4
#55 CCOc1ccc(NC(=O)c2cc3c(=O)n(C)c4ccccc4c3n2C)cc1
  A: 1% | B: 1% | C: 1.5% | D: -1
#56 CCC(C)c1ccccc1N1CC(C(=O)NCCCn2nc(C)cc2C)CC1=O (centres undefined)
  A: -6% | B: / | C: 1.2% | D: /
#57 CC(c1ccccc1)N1C(=O)CC(Sc2ncccc2C(=O)O)C1=O (centres undefined)
  A: -3% | B: -1% | C: 1.7% | D: 2
#58 CCCC[C@@H]1CCCO[C@@](C(=O)NCc2ccccn2)(C(F)(F)F)C1
  A: -13% | B: / | C: 0.4% | D: /
#59 COc1ccc(-c2cnc(SCC(=O)Nc3ccc4c(c3)OCO4)n2Cc2ccco2)cc1
  A: -11% | B: 14% | C: 2.9% | D: -15
#60 COc1ccc(N=c2cc(-c3ccc(O)cc3)oc3ccccc23)cc1
  A: -7% | B: -19% | C: ? | D: -4
#61 O=C(NC1CCN(C(=O)Nc2ccccc2Cl)CC1)c1ccco1
  A: 2% | B: 10% | C: -3.8% | D: /
#62 O=C(Cc1ccc(-n2cccc2)cc1)NC1CCCCCC1
  A: -25% | B: -11% | C: 0.2% | D: 3
#63 CC(=O)c1ccc(COC(=O)Cc2ccc([N+](=O)[O-])cc2)cc1
  A: 19% | B: 3% | C: -0.5% | D: /
#64 Cn1c(=O)oc2cc(S(=O)(=O)N3CCCC(C(=O)NCCN4CCOCC4)C3)ccc21 (centres undefined)
  A: 7% | B: -1% | C: 0.6% | D: 1
#65 Cc1ccc2nc(C)cc(Nc3ccc([N+](=O)[O-])cc3)c2c1
  A: ? | B: -17% | C: 1.9% | D: -20
#66 O=C(CSCc1ccccc1)Nc1ccccc1
  A: 31% | B: -57% | C: -0.7% | D: /
